# V. cholerae QS: Vibrio cholerae quorum sensing activators, luminescence (AID 686977); V. cholerae quorum sensing reporter, luminescence, 6 h; higher luminescence means a stronger effect; most inactives read 0; luminescence at 50 µM unless noted; hits with a dose series show EC50 in µM; 9,400 tested, under 10 active;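 active = light above mean plus 3 SD and confirmed in a dose series; inconclusive = above that limit without a clear retest; inactive = below it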;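 also: raw light counts without normalisation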
# * = called active by the depositor; ? = inconclusive; [ ] = remark or other dose. This is a subset, so the mix of outcomes need not match the whole.
SMILES,V. cholerae QS
CCOC(=O)c1c(C)nc2ccccc2c1C,40
COC(=O)COn1c(SC(C)C)nc2ccccc2c1=O,280
COc1cc(C(=O)Nc2nnc(C)s2)cc(OC)c1OC,0
COc1ccccc1N1CCN(C(CNS(=O)(=O)c2cccs2)c2cccnc2)CC1 (stereo unspecified),0
CCCCC(=O)Nc1ccc(NC(=O)CCCC)nc1,0
C[C@H]1O[C@@H](OC2CC[C@]3(C=O)[C@H]4CC[C@]5(C)[C@@H](C6=CC(=O)OC6)CC[C@]5(O)[C@@H]4CC[C@]3(O)C2)C[C@H](O)[C@@H]1O (stereo partly specified),40[10 µg/mL]
CCn1c(SCCC(C)C)nnc1-c1c[nH]c2ccccc12,40
CCOC(=O)N1CCN(c2c(N3CCN(c4ccc(OC)cc4)CC3)c(=O)c2=O)CC1,0
Cc1ccc(C2CC(C(F)(F)F)n3nc(C(=O)NCC4CCCO4)cc3N2)cc1 (stereo unspecified),0
CCN1CCN(CC(=O)Nc2ccc3c(c2)OCCO3)C(=O)C1=O,40
O=C(Nc1ccccc1)Nc1cccc(Cl)c1,0
N#Cc1nc(-c2ccccc2F)oc1NC1CCCCC1,0
COC(=O)c1cccc(NC(=O)Cc2ccc(OC)cc2)c1C,0
Cc1ccc(C)c(NC(=O)CSc2nc3c(c(=O)n2C)SC(C)C3)c1 (stereo unspecified),0
COc1cccc(CNc2nn[nH]n2)c1OC,0
CN1CCN(c2nc3c(c(=O)[nH]c(=O)n3C)n2Cc2cccc3ccccc23)CC1,?
CCN(CC)S(=O)(=O)c1ccc(NC(=O)c2c(-c3ccccc3)noc2C)cc1,?
CCOc1ccc(C(=O)N(C)C2CCS(=O)(=O)C2)cc1 (stereo unspecified),0
CCCCn1c(=O)c(C(=O)NCc2ccncc2)c(O)c2ccccc21,0
Cc1ccc2oc(=O)c3cnn(CC(=O)N(Cc4ccco4)C4CCCCC4)c3c2c1,0
O=C(c1ccc(CN2CCOCC2)cc1)N1CCN(c2ccccc2F)CC1,0
CCN1CCC[C@H]1CNC(=O)c1c(OC)ccc(Br)c1OC,0[10 µg/mL]
O=C(NCCCN1CCCC1=O)c1ccc2c(c1)NC(=O)c1ccccc1S2,0
Cc1cc(=O)n2c(ccc3ccccc32)c1C#N,40
COc1ccc(-c2nsc3c(N4CCCC4)ncnc23)cc1,0

# The list goes on; it opens with the two that closed the last part.
SMILES,V. cholerae QS
Cc1cc(=O)n2c(ccc3ccccc32)c1C#N,40
COc1ccc(-c2nsc3c(N4CCCC4)ncnc23)cc1,0
CCCCCCCOC(=O)C1=C(C)Nc2ncnn2C1c1cccs1 (stereo unspecified),40
CCN(CC)CC(=O)Nc1c(C)cccc1C,120[10 µg/mL]
O=C(NC1CCCC1)c1noc2c1CCCCC2,400
COc1ccccc1-c1cc(C(=O)Nc2c(C)n(C)n(-c3ccccc3)c2=O)no1,0
COCCCN1C(=O)C(=O)/C(=C(/O)c2ccc(OC(C)C)cc2)C1c1ccc(O)c(OC)c1 (stereo unspecified),0
CC1(C)O[C@@H]2C[C@H]3[C@@H]4C[C@H](F)C5=CC(=O)CC[C@]5(C)[C@H]4[C@@H](O)C[C@]3(C)[C@]2(C(=O)CO)O1,0[10 µg/mL]
CC[C@H]1CN2CCc3cc(OC)c(OC)cc3[C@@H]2C[C@@H]1C[C@H]1NCCc2cc(OC)c(OC)cc21,?
CCOC(=O)c1cc(OC(=O)c2ccccc2Br)n(-c2ccccc2)n1,0
O=C(N1CCCCC1)N1CCN(C(c2ccccc2)c2ccccc2)CC1,0
COC(=O)CN1C(=O)C2(C(C(=O)OC)=C(N)Oc3ccccc32)C2=C1CC(C)(C)CC2=O (stereo unspecified),0
CCC(Sc1n[nH]c(=O)[nH]c1=O)C(=O)OCc1ccccc1 (stereo unspecified),40
COC(=O)c1cn(N(C)c2ncc(C(F)(F)F)cc2Cl)c(=O)c2ccccc12,?
Cc1ccc(F)c(NC(=O)CCc2ccccc2)c1,0
Cc1ccc(C)c2[nH]c(=O)c(CCNC(=O)C(C)(C)C)cc12,0
COc1ccc(-c2nnn(CC(=O)N(Cc3ccccc3Cl)C(C(=O)NCC3CCCO3)c3ccco3)n2)cc1 (stereo unspecified),0
COc1cc(-c2ccc(=O)[nH]n2)ccc1OC(F)F,0[10 µg/mL]
O=C(NC1CCCc2ccccc21)C1CCCN(S(=O)(=O)c2cnc[nH]2)C1 (stereo unspecified),40
C=CCn1c(CCNC(=O)c2ccc(Cl)c(Cl)c2)nnc1SCCOc1ccc(OC)cc1,0
Cc1occc1C(=O)Nc1c(F)c(F)c(F)c(F)c1F,0
Cc1cc(O)cc(O)c1C(=O)Cc1cnn(-c2ccccc2)c1,0
COc1ccc(-c2cc(CNC(=O)CN3CCN(C)CC3)on2)cc1,0
NC(=O)c1ccc[n+]([C@@H]2O[C@H](COP(=O)([O-])OP(=O)(O)OC[C@H]3O[C@@H](n4cnc5c(N)ncnc54)[C@H](O)[C@@H]3O)[C@@H](O)[C@H]2O)c1,0[10 µg/mL]
O=C(C1CCN(S(=O)(=O)N2CCC3(CC2)OCCO3)CC1)N1CCOCC1,40
CCOC(=O)C(CC)(CC)/C(C)=N/NC(=O)CC#N,0
Cc1cc(C)nc(NC(=O)c2cnc3sccn3c2=O)n1,0

# An excerpt from above in order of length of the SMILES, rising.
SMILES,V. cholerae QS
Cc1ccc(F)c(NC(=O)CCc2ccccc2)c1,0
CCC(Sc1n[nH]c(=O)[nH]c1=O)C(=O)OCc1ccccc1 (stereo unspecified),40
Cc1ccc(C)c2[nH]c(=O)c(CCNC(=O)C(C)(C)C)cc12,0
O=C(NC1CCCc2ccccc21)C1CCCN(S(=O)(=O)c2cnc[nH]2)C1 (stereo unspecified),40
COC(=O)CN1C(=O)C2(C(C(=O)OC)=C(N)Oc3ccccc32)C2=C1CC(C)(C)CC2=O (stereo unspecified),0
COc1ccc(-c2nnn(CC(=O)N(Cc3ccccc3Cl)C(C(=O)NCC3CCCO3)c3ccco3)n2)cc1 (stereo unspecified),0
CC[C@H]1CN2CCc3cc(OC)c(OC)cc3[C@@H]2C[C@@H]1C[C@H]1NCCc2cc(OC)c(OC)cc21,?

# The main list resumes; the 3 compounds before the break are reprinted first.
SMILES,V. cholerae QS
O=C(C1CCN(S(=O)(=O)N2CCC3(CC2)OCCO3)CC1)N1CCOCC1,40
CCOC(=O)C(CC)(CC)/C(C)=N/NC(=O)CC#N,0
Cc1cc(C)nc(NC(=O)c2cnc3sccn3c2=O)n1,0
CC1(C)CC(=O)c2sc(NC(=O)C3CC3)nc2C1,0
COc1ccc(OC)c2c1sc(=NC(=O)CN1C(=O)CCC1=O)n2C,40
CN1CCN(CCCNC(=O)c2cc3c(-c4ccc(Cl)cc4)nn(C)c3s2)CC1,0
O=C(NCCNCC(O)COc1ccc(O)cc1)N1CCOCC1 (stereo unspecified),0[10 µg/mL]
COc1ccc(S(=O)(=O)Nc2ccccc2C)cc1,960
CCCCn1c(O)c(C(CC)=NCCN2CCOCC2)c(=O)[nH]c1=O,0
COc1ccc(C2(C(=O)N3CCCC3)CCOCC2)cc1OC,40
COc1ccc(-c2cc(C)nc3nc(N)nn23)cc1,0
CCN(CC)CCNC(=O)C1c2cc(OC)c(OC)cc2C(=O)N2CCc3ccccc3C12 (stereo unspecified),40
Cc1ccc(S(=O)(=O)N2Cc3ccccc3CC2C(=O)Nn2cnnc2)cc1 (stereo unspecified),?
COC(=O)C1(C)Nc2ccccc2C(=O)N1c1ccccc1C (stereo unspecified),0
CCCCOc1ccc(/C=C/C(=O)NCCc2nc3ccccc3[nH]2)cc1,0
COc1ccc(-c2nnc(SCC(=O)Nc3ccc(C)cc3)n2C)cc1,0
COCCn1c(C(C)C)nc2oc3ccccc3c(=O)c2c1=O,0
Brc1ccc(-c2cn3nc4c(nc3n2)CCCC4)cc1,0
O=S1(=O)CCC(N2CCOCC2)C1 (stereo unspecified),0
NC(=O)N/N=C/c1ccc([N+](=O)[O-])o1,0[10 µg/mL]
Cc1nc2nc(-c3ccc(Cl)cc3)cn2nc1C,?
Cc1noc(C)c1COC(=O)C1COc2ccccc2O1 (stereo unspecified),40
CC(C)c1nnc(NC(=O)c2cccs2)s1,40
CC1CCCCC1NC(=O)CSc1nnc(-c2ccccc2)n1N (stereo unspecified),0
CCOC(=O)C(C)Sc1nc(-c2ccccc2)nc2ccc(F)cc12 (stereo unspecified),0
C=C[C@H]1CN2CC[C@H]1C[C@@H]2[C@@H](O)c1ccnc2ccccc12,0[10 µg/mL]
N#C/C(=C/c1ccc(Sc2nc3ccccc3[nH]2)o1)c1cccc(Br)c1,0
COc1ccccc1C(=O)N/C(=C\c1ccc(Br)cc1)C(=O)NCCO,0

# Filtered by structure: the compounds so far with bromine.
SMILES,V. cholerae QS
CCN1CCC[C@H]1CNC(=O)c1c(OC)ccc(Br)c1OC,0[10 µg/mL]
CCOC(=O)c1cc(OC(=O)c2ccccc2Br)n(-c2ccccc2)n1,0
Brc1ccc(-c2cn3nc4c(nc3n2)CCCC4)cc1,0
N#C/C(=C/c1ccc(Sc2nc3ccccc3[nH]2)o1)c1cccc(Br)c1,0
COc1ccccc1C(=O)N/C(=C\c1ccc(Br)cc1)C(=O)NCCO,0

# Carrying on.
SMILES,V. cholerae QS
Cc1ccc2oc3c(c(=O)c2c1)C(c1ccc(F)cc1)N(CCCN1CCOCC1)C3=O (stereo unspecified),0
Cc1nc2ccccc2n2c(-c3ccccc3)c3c(=O)n(C)c(=O)n(C)c3c12,0
CCOC(=O)Cn1ccc(O)c(Cc2ccc(Cl)cc2Cl)c1=O,0
N#CC1=C(SCc2ccccc2)NC(=O)C(C#N)C12CCCC2 (stereo unspecified),40
CCOc1ccc(N(CC(=O)N2CCCC2)S(=O)(=O)c2c(C)noc2C)cc1,40
COc1ccc(N2C(=O)C3CCCN3C2c2ccccc2F)cc1 (stereo unspecified),0
O=C(COc1ccc(Cl)cc1)Nc1ccccc1N1CCOCC1,40
Cc1cccc(Oc2ccccc2N)c1,0
CCOC(=O)c1cc2c(=O)n3ccccc3nc2n(CC(C)C)c1=NC(=O)c1ccco1,0
CN(C/C=C/c1ccccc1)Cc1cccc2ccccc12,40[10 µg/mL]
CCOC(=O)c1c(C)n(Cc2ccccc2)c2ccc(OCC(O)Cn3nc(C)nc3C)cc12 (stereo unspecified),240
C=C(CC)C(=O)c1ccc(OCC(=O)O)c(Cl)c1Cl,40[10 µg/mL]
CC(=O)c1ccc(OC(=O)c2cccs2)cc1,40
CCc1ccc(C(=O)Nc2ccc(S(=O)(=O)Nc3nc(C)cc(C)n3)cc2)o1,0
O=C(Nc1cccc(F)c1)C1CCCN1S(=O)(=O)c1cccc2cccnc12 (stereo unspecified),0
CN(CC(=O)N1CCc2ccccc2C1)S(=O)(=O)c1ccc2c(c1)c(=O)n(C)c(=O)n2C,40
O=C(OCCCN=C1NS(=O)(=O)c2ccccc21)c1ccc(F)cc1,0
CCC1=NN(C(=O)CCc2ccccc2)C(O)(C(F)(F)F)C1 (stereo unspecified),40
O=C(Nc1nnc(-c2cccs2)o1)c1cccc(Oc2ccccc2)c1,0
COc1ccc(S(=O)(=O)N2Cc3ccccc3CC2C(=O)O)cc1OC (stereo unspecified),40
COCC(=O)Nc1c(I)c(C(=O)NCC(O)CO)c(I)c(C(=O)N(C)CC(O)CO)c1I (stereo unspecified),0[10 µg/mL]
O=C1C=C(c2ccc(Cl)cc2)C(=O)N1Nc1ccccc1,40
CCOC(=O)C(C)Oc1cccc2c(=O)n(CC(=O)NCc3ccc4c(c3)OCO4)ccc12 (stereo unspecified),0
COc1ccc2c(C=Nc3c(C)n(C)n(-c4ccccc4)c3=O)c(O)n(Cc3ccco3)c(=O)c2c1,0
Cc1cc(Nc2ccc3c(c2)OCCO3)n2nc(C)nc2n1,80
# The results go on.
SMILES,V. cholerae QS
COc1ccc(NS(=O)(=O)Cc2ccccc2)cc1OC,40
COC(=O)[C@H](C)NC(=O)Nc1ccc(OC)c(OC)c1,40
Cc1ccc(NC(=O)C2CCCN2S(=O)(=O)c2cccc3cccnc23)cc1F (stereo unspecified),0
CC(=O)OCC(=O)[C@@]1(OC(C)=O)[C@@H](C)C[C@H]2[C@@H]3C[C@H](F)C4=CC(=O)C=C[C@]4(C)[C@@]3(F)[C@@H](O)C[C@@]21C,40[10 µg/mL]
Nc1c(C(=O)NCc2ccco2)c2nc3ccccc3nc2n1CCc1ccccc1F,0
COc1ccc(NC(=O)CSc2ncnc3c2cnn3Cc2ccccc2)cc1,0
COC(=O)c1ccc(C)c(NC(=O)Cn2cnc3ccccc3c2=O)c1,0
COc1ccc(C(=O)NCc2cccnc2)cc1C(=O)NCc1cccnc1,80[10 µg/mL]
Oc1ccc(Cl)cc1CN1CCN(Cc2ccccc2)CC1,0
CCc1ccc(C(=O)CCC2CCCCC2=O)cc1 (stereo unspecified),0
CCCC(=O)Nc1nc2ccc(C(=O)OCC)cc2s1,0
CCC(=O)N1CCN=C1SCc1ccc(F)cc1,0
CCOc1ccccc1C1C(C(=O)Nc2ccccc2OC)=C(C)Nc2nnnn21 (stereo unspecified),0
COc1ccc(C(=O)OCC(=O)NCc2ccco2)cc1S(=O)(=O)N1CCN(c2cccc(Cl)c2)CC1,0
Cc1ccc(SCC(=O)O/N=C(\N)c2ccc([N+](=O)[O-])cc2)cc1,0
O=C1CCc2cc(S(=O)(=O)N3CCC(C(=O)NC4CCCC4)CC3)ccc2N1,0
CCOc1ccc(C2c3c(oc4ccccc4c3=O)C(=O)N2c2ccc(C)cn2)cc1OC (stereo unspecified),0
Cc1ccc2cc(C#N)c(SCC(=O)NCc3ccco3)nc2c1,0
CCOC(=O)c1ccccc1NC(=O)Cn1cnc2c(nnn2-c2ccc(C)cc2)c1=O,?
Cn1c(SCc2nc(-c3ccc(Cl)cc3)no2)nnc1-c1ccccc1,0
CCOc1ccc(C2NC(=O)c3n[nH]c(C)c32)cc1 (stereo unspecified),0
CN(C)C(=O)CN(c1ccc(F)c(Cl)c1)S(C)(=O)=O,0
O=C(NC1CCCCC1)C(c1ccc2ncccc2c1)N(Cc1ccc(F)cc1)C(=O)c1cccs1 (stereo unspecified),0
CCn1c(CNC(=O)COc2ccc(C(C)C)cc2)nnc1SCC(=O)Nc1ccc(F)cc1,40
N#Cc1cc(C#N)c(N2CCN(c3cccc(Cl)n3)CC2)nc1N,0
Cc1ccccc1-c1nc(CS(=O)CC(=O)NCCN2CCOCC2)c(C)o1 (stereo unspecified),0
COCCNC(=O)CCc1c(C)nc2c(-c3ccc(F)cc3)c(C)nn2c1C,0
